Calb FLC: C. albicans growth inhibition with fluconazole, primary screen, CaCi-2 strain, Alamar Blue fluorescence. C. albicans CaCi-2 (fluconazole-resistant clinical isolate) + fluconazole, 48 h. growth inhibition, % (no concentration beside the values). 300,000 tested, 0.57% active;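 active means most replicates above 75%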;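 further: all wells also contain fluconazole at 8 µg/ml as a sub-toxic cotreatment; 0% = median of DMSO wells and 100% = median of geldanamycin control wells; wells of about 8 µL received 7.5 nL stock; the first replicate is given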
Beta apoptosis: inhibitors of cytokine-induced beta cell apoptosis, primary screen, luminescence; INS-1E cytokine-induced death, ATP luminescence, 48 h; percent of positive-control rescue, neutral wells zero; protection from apoptosis, % (no concentration beside the values); 300,000 tested, 0.8% active;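 active means all replicates at 75% or more, or half of them and the mean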;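 further: 0% = cytokine-treated negative control wells and 100% = positive control rescue; higher means more ATP so stronger rescue from cytokine killing; wells of about 40 µL received 100 nL stock; the first replicate is given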
rRNA inh HTS: reduced GFP signal of wild-type E. coli, primary screen, bacterial rRNA inhibitor project, GFP/RFP fluorescence, OD600, single point. AID 720706, 2013. GFP signal change (wild-type ribosome), % (test concentration not listed). E. coli WT GFP vs humanized-ribosome RFP mutants, 24 h; stronger effect = lower value; DMSO median 0, no signal -100. 350,000 tested, 1.6% active;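 active means significant combined selectivity score with lowered wild-type GFP, culture density cut under 30%, mutant RFP and density less affected; inactive means any of these conditions unmet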; further: one replicate is shown; some compounds called inactive have numbers as strong as hits
A1 inh: caspase 3/7 activation in MEF A1-2A-BIM cells, primary screen, A1 inhibitor project, cell-based, luminescence, HTS; Caspase-Glo 3/7 luminescence, 3 h; percent of clofoctol response, vehicle zero; 330,000 tested, 0.066% active; caspase activation, % (no concentration beside the values);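 active means over half of replicate activation scores above 10%, or exactly half above 10 with the replicate mean above 10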;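 further: wells of about 30 µL received 50 nL stock; many hits fall short of the cut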
T cruzi repl: inhibitors of intracellular T. cruzi growth, primary screen, luminescence, NIH3T3 host cells; T. cruzi beta-gal in NIH3T3, 90 h; 300,000 tested, 1.4% active; inhibition, % (test concentration not listed); AID 1885, 2009;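 active means mean inhibition across valid replicates above about 55%, limit read from the data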;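 further: signal also drops with host cell toxicity which is not excluded here; 0% = plate median of DMSO wells and 100% = zero luminescence signal; higher percent means less beta-gal luminescence so fewer parasites; stock transfer was 50 nL into about 50 µL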
ALR inh: inhibitors of human ALR sulfhydryl oxidase, primary screen, biochemical, H2O2 detection, HRP-luminol luminescence, single point | purified ALR, DTT oxidation | inhibition, % (test concentration not listed) | FAD-linked sulfhydryl oxidase ALR (Homo sapiens), P55789 | 290,000 tested, 3.8% active | AID 485317, 2010;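 active means mean and each replicate at 75% or more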;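 further: stock transfer was 7.5 nL into about 7.5 µL; 0% = neutral wells and 100% = wells with inactivated enzyme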
Target sequence (P55789 whole entry, looked up): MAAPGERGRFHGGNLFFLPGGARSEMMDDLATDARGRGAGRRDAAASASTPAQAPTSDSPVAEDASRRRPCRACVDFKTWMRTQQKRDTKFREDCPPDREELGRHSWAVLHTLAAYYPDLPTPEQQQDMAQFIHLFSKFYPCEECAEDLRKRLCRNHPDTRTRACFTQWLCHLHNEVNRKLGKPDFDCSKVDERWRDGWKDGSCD
Beta2AR agonist: beta2AR agonists driving receptor internalization, primary screen, cell-based, FAP fluorogen, flow cytometry; 340,000 tested, 0.43% active; Am2.2-beta2AR cells; reference of the scale not given here; response, % (no concentration beside the values); Beta-2 adrenergic receptor (Homo sapiens), P07550;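 active means response above a set limit, near 3 SD of response in nonfluorescent compounds, cut at about 42% in these data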;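 further: stock transfer was 100 nL into about 11 µL; a reference agonist was the positive control; negative values mostly stem from fluorescent compounds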
Target sequence (P07550 whole entry, looked up): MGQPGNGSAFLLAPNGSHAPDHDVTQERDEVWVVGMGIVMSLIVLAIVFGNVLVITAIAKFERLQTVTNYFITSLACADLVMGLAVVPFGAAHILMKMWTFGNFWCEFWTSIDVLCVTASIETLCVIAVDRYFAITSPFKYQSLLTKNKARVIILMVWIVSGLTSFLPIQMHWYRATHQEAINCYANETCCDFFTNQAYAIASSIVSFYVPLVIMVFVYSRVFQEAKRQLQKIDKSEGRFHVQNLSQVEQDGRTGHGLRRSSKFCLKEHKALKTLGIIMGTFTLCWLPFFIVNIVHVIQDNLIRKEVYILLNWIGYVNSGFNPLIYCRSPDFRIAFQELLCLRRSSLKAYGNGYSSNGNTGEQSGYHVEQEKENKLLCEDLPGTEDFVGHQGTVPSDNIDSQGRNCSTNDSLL
LANA-H2A inh: blockers of LANA interaction with H2A/H2B – biochemical, FP readout, HTS, primary screen; cell-free LANA-H2A/H2B peptide, fluorescence polarization; inhibition, % (no concentration beside the values); 320,000 tested, 0.6% active; AID 2629, 2010; in the data active means inhibition mostly above about 10%, no sharp cut-off; inactive means mostly below about 6.7%;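 further: stock transfer was 7.5 nL into about 10 µL; 0% = median of vehicle wells and 100% = median of positive control wells; one replicate is shown; the record names a cut of 25% in any replicate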
rRNA inh HTS OD600: second read-out of rRNA inh HTS, no call of its own (marks repeat the call); OD600 change, %; measured here: OD600 growth;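 optical density of the mix in the first replicate; 0 = DMSO median and -100 = no signal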
rRNA inh HTS RFP: further read-out of rRNA inh HTS, marked with its call; RFP signal change, %; measured here: RFP humanized mutant strains;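 first replicate; 0 = DMSO median and -100 = no signal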
Active calls of the source: *; x = not tested or not shown.

SMILES | Calb FLC | Beta apoptosis | rRNA inh HTS | rRNA inh HTS OD600 | rRNA inh HTS RFP | A1 inh | T cruzi repl | ALR inh | Beta2AR agonist | LANA-H2A inh
Cc1cc(NC(=O)C23CC4CC(C2)CC(n2cnc([N+](=O)[O-])n2)(C4)C3)no1 | -5 | -10 | 7 | 17 | 1.5 | -1.3 | 55* | 0 | 2 | -0.7
Cc1ccc(NC(=O)/C(=C\c2ccccc2)NC(=O)/C=C/c2ccccc2)cc1 | 17 | 3 | x | x | x | 0.2 | 16 | x | 3 | -2.0
COc1ccc(CN(Cc2cc3cccc(C)c3[nH]c2=O)C(=O)N(C)C)cc1 | 0 | -8 | x | x | x | 0.9 | -25 | 0 | -4 | 0.8
COCCn1c(SCC(=O)NCCCN2CCCC2=O)nc2ccccc2c1=O | x | -2 | 17 | 9 | 0.4 | -0.5 | x | -10 | 3 | 4.3
C=C1CCN(C(CC(C)C)C(=O)OC)S(=O)(=O)c2ccccc21 (stereo unspecified) | 1 | -7 | -25 | -32 | -8.4 | -1.5 | -26 | -3 | -1 | -2.1
O=C(OCC(=O)C12CC3CC(CC(C3)C1)C2)c1ccc(CO)cc1 | x | -1 | 17 | 17 | 1.9 | 1.0 | x | -2 | 8 | -1.9
Cc1ccc(Cl)cc1N1CCN(C(=S)NCc2ccco2)CC1 | -35 | -5 | -23 | -37 | 1.0 | 0.4 | 25 | 1 | -1 | -6.1
O=C(/C=C/c1c(Cl)cccc1Cl)NCCCn1ccnc1 | 8 | 8 | -11 | -6 | -3.4 | 0.8 | 25 | -3 | -11 | 1.6
Cc1cc2nc3c(c(C(F)(F)F)n2n1)CCCC3 | 4 | -1 | 9 | 14 | 3.7 | 0.7 | -2 | -15 | -3 | 3.8
O=S(=O)(Nc1ncccn1)c1ccc(NS(=O)(=O)c2cccc(Cl)c2Cl)cc1 | 0 | -2 | -2 | -5 | 1.4 | 0.8 | -5 | 0 | 0 | -5.5
O=C(COc1ccc(Cl)cc1Cl)Nc1ccc(-c2ccc(N3CCOCC3)nn2)cc1 | 10 | 2 | -2 | 0 | 0.9 | -0.8 | 23 | x | 30 | 4.3
Cc1ccc(C2CC(=O)c3cnc(N4CCN(c5ccccc5)CC4)nc3C2)cc1 (stereo unspecified) | -1 | -5 | 1 | 8 | -2.5 | 0.9 | 32 | -2 | 7 | 3.8
CC(=O)Nc1ccccc1NC(=O)c1cccc2ccccc12 | -10 | -10 | x | x | x | 0.3 | 1 | x | -1 | -0.2
Cc1ccc(C(=O)Nc2cccc(C(=O)N/N=C/c3ccccc3F)c2)cc1 | -21 | -2 | -2 | -5 | 1.2 | 0.5 | -6 | 0 | 13 | 1.9
COc1ccc(OC)c(N(CC(=O)Nc2cccnc2)S(=O)(=O)c2ccc(OC)c(OC)c2)c1 | 0 | 1 | x | x | x | 0.8 | 1 | -7 | 1 | 0.7
Cc1nc2c(-c3ccc(F)cc3)c(C)nn2c(C)c1CCC(=O)Nc1ccc(F)cc1F | -3 | 3 | 1 | 8 | 6.6 | 1.0 | 25 | x | -3 | -3.0
O=C(NCCCN1CCOCC1)c1cc2c(=O)[nH]c3ccccc3c2s1 | -9 | 8 | -8 | 3 | 6.3 | -0.7 | -8 | 2 | -8 | 1.6
Cc1ccc(-c2nc(C)sc2CC(=O)Nc2cccc(C)c2C)cc1 | 12 | -4 | x | x | x | -0.3 | 8 | 42 | 0 | 3.2
Cc1ccc(S(=O)(=O)N2CCN(C(=O)C(C)Cn3nc(C)c(C)c3C)CC2)cc1C (stereo unspecified) | -5 | -1 | 6 | 9 | 0.1 | 0.9 | -1 | -3 | 4 | 1.7
COC(=O)Cn1c2ccc(C)cc2c2nc3ccccc3nc21 | -2 | x | 15 | 16 | 3.1 | x | -7 | x | -12 | x
Cc1cc(C(=O)OCC(=O)c2ccc(Br)s2)c(C)o1 | 0 | -5 | x | x | x | -0.3 | 10 | 7 | x | 0.1
C=CCOc1ccc(CN(C)CC(O)COc2cccc3ccccc23)cc1 (stereo unspecified) | -10 | 2 | -57 | -80 | -17 | 0.2 | 50 | -169 | 17 | -3.0
CCc1cccc2c(N=O)c(O)[nH]c12 | 7 | -11 | x | x | x | -0.5 | -4 | x | -4 | -0.5
Cc1ccccc1NC(=O)Cc1nc(COC(=O)COc2ccc(C(C)(C)C)cc2)cs1 | x | -1 | 7 | -1 | 0.4 | 0.3 | x | -4 | 4 | 17*
Cc1cc(NC(=O)c2cccnc2Cl)ccc1NC(=O)c1cc2ccccc2o1 | -3 | -4 | 8 | 5 | -1.0 | 0.6 | -2 | 3 | -2 | -2.1
CCCc1cnc(N2CCN(C(=O)c3ccc(F)cc3)CC2)nc1 | -1 | -2 | -2 | -4 | -2.3 | 0.3 | 3 | 0 | 5 | 2.2
O=C(COC(=O)c1ccccc1Br)NCC1CCCCC1 | x | -4 | -21 | -50 | -4.1 | 0.0 | x | -2 | x | 8.8
COc1ccc(C(=O)N/N=C(\C)Cn2nc([N+](=O)[O-])cc2C)cc1 | -1 | 5 | x | x | x | 1.0 | x | -2 | -1 | -3.3
C=CCOC(=O)c1[nH]c2c(c1C)C(=O)CC(c1cc(OC)c(OC)c(OC)c1)C2 (stereo unspecified) | 10 | 50 | x | x | x | -0.2 | -5 | -1 | 4 | 1.4
Cn1c(=O)c2c(ncn2CC(=O)N2CCN(S(=O)(=O)c3ccc(Cl)cc3)CC2)n(C)c1=O | 10 | x | 6 | 3 | 0.0 | -0.3 | -3 | 4 | 8 | 2.2
COc1ccc(N(CC(=O)NCCSC2CCCCC2)S(=O)(=O)c2ccc(C)cc2)cc1 | -20 | 11 | x | x | x | 0.3 | 23 | -3 | 10 | -6.2
Cc1ccc(NC(=O)CN2C(=O)C3CCCCN3C(=O)c3ccccc32)cc1 (stereo unspecified) | 1 | 7 | x | x | x | -0.5 | -4 | -2 | -5 | -5.6
COc1ccc(NC(=O)CN(c2ccc(OC)cc2)S(=O)(=O)c2ccc(OC)c(OC)c2)cc1 | 2 | x | 7 | 9 | 0.7 | -0.2 | 6 | -5 | 0 | -4.0
CC(OC(=O)CCCN=C1NS(=O)(=O)c2ccccc21)C(=O)Nc1ccc(F)cc1Cl (stereo unspecified) | -3 | x | 1 | 10 | -1.5 | 0.7 | -12 | -5 | 5 | 4.2
O=C(NCCN1CCCCC1)c1ccc(F)cc1Cl | 7 | -6 | 6 | 10 | -1.0 | -1.1 | -14 | -1 | -1 | -4.1
O=C(N/N=C\C=C\c1ccc2c(c1)OCO2)C1COc2cc3ccccc3cc2O1 (stereo unspecified) | 11 | -4 | x | x | x | -0.8 | x | -1 | 2 | -8.2
C[C@@H]1COC(=O)[C@H](NC(=O)OCC2c3ccccc3-c3ccccc32)C/C=C\C[C@@H](CC(=O)N(CCO)Cc2ccccc2)C(=O)N1 | x | 39 | x | x | x | 0.0 | x | -31 | 0 | 9.2
CCOC(=O)N1CCN(c2c(NCC3CCCO3)c(=O)c2=O)CC1 (stereo unspecified) | -7 | -6 | 9 | 8 | -1.7 | 0.5 | -6 | -5 | 4 | -1.9
COc1ccc(-c2nnc(N(C)C(=O)c3ccno3)s2)cc1 | -5 | -2 | x | x | x | -4.1 | 6 | -3 | -2 | 0.8
Cc1ccc(-c2noc(-c3cc4ccccc4oc3=O)n2)cc1 | 2 | -26 | x | x | x | -0.5 | -3 | -17 | -5 | 4.2
Cn1c(=O)n(CC(=O)NCC2CCCO2)c(=O)c2c3c(sc21)COC(C)(C)C3 (stereo unspecified) | 8 | 0 | 9 | 10 | -1.0 | -0.2 | -7 | -1 | -12 | -8.1
C/C(=N\Nc1cc(C(F)(F)F)ccc1Cl)c1ccncc1 | 13 | -4 | -46 | -74 | -4.3 | 1.6 | 24 | 0 | -1 | 0.0
COc1ccccc1S(=O)(=O)Cc1ccc(C(=O)NCc2ccco2)o1 | 3 | 2 | 5 | 4 | -0.7 | 0.6 | 6 | -13 | 1 | -2.4
COc1ccc(S(=O)(=O)Nc2cc(C(=O)NC(C)C)ccc2N2CCOCC2)cc1 | 26 | 4 | x | x | x | 0.4 | -1 | -2 | 3 | 1.4
Cc1ccc(S(=O)(=O)c2cc3c(=O)n4cccc(C)c4nc3n(CC3CCCO3)c2=N)cc1C (stereo unspecified) | -2 | 4 | 23 | 13 | 5.0 | 0.4 | 11 | -6 | -1 | -2.5
CCc1nn(CC(=O)NCCCN(CC)c2cccc(C)c2)c(=O)c2cc3occc3n12 | 21 | -5 | x | x | x | -0.9 | 18 | 10 | x | 0.9
COc1ccc(/C=N/n2cnc3c([nH]c4ccc(F)cc43)c2=O)cc1CSc1ccccn1 | -3 | 53 | 6 | 1 | 3.1 | -0.6 | -36 | x | 58* | -1.6
Cc1cccc(C)c1-n1c(C)cc(/C=N/NC(N)=S)c1C | -2 | -11 | x | x | x | -1.0 | 53 | 26 | 4 | -2.0
Cc1nc(CNS(=O)(=O)c2cc(C)c(C)cc2C)cs1 | -1 | -7 | x | x | x | -0.1 | 21 | -1 | 3 | 3.8
Cn1cc(C(=O)N2CCCC(Nc3ccc(F)cc3)C2)c2ccccc21 (stereo unspecified) | 23 | 8 | -25 | -20 | -1.4 | 0.2 | 17 | 88* | -10 | 5.1
O=C(Cc1ccc([N+](=O)[O-])cc1)c1ccc(O)cc1O | 38 | -5 | -8 | -8 | -6.0 | -0.9 | -5 | x | -3 | 6.1
O=C(COc1ccccc1)Nc1ccc2[nH]c(=O)[nH]c2c1 | 8 | 14 | -2 | 4 | -6.3 | 1.1 | -18 | -13 | 1 | 0.3
Cc1ccccc1-n1nc(C)c2c1N=C1C(Cl)=CC(Cl)=CN1C2c1ccc(C(=O)O)cc1 (stereo unspecified) | 0 | -5 | x | x | x | 0.3 | 8 | x | 23 | x
O=c1c2ccccc2ncn1-c1cccc(Cl)c1 | 0 | 1 | x | x | x | 0.2 | -2 | -8 | -8 | 3.3

A draw from above in order of length of the SMILES, ascending:
SMILES | Calb FLC | Beta apoptosis | rRNA inh HTS | rRNA inh HTS OD600 | rRNA inh HTS RFP | A1 inh | T cruzi repl | ALR inh | Beta2AR agonist | LANA-H2A inh
O=C(COc1ccccc1)Nc1ccc2[nH]c(=O)[nH]c2c1 | 8 | 14 | -2 | 4 | -6.3 | 1.1 | -18 | -13 | 1 | 0.3
CCc1nn(CC(=O)NCCCN(CC)c2cccc(C)c2)c(=O)c2cc3occc3n12 | 21 | -5 | x | x | x | -0.9 | 18 | 10 | x | 0.9
Cc1ccccc1-n1nc(C)c2c1N=C1C(Cl)=CC(Cl)=CN1C2c1ccc(C(=O)O)cc1 (stereo unspecified) | 0 | -5 | x | x | x | 0.3 | 8 | x | 23 | x

This is a subset; count on the stated rates, not on these rows.
